Bioassay records deposited in PubChem by Broad Institute.
FGF22 binding: shifts melting point of recombinant human FGF22. calls only at 9.99 µM. actives 1.5% (n = 340,000). Q9HCT0. recombinant FGF22 thermal shift, SYPRO orange fluorescence; percent of sucrose octasulfate shift, DMSO zero;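 active = melting point raised past a set limit in the mean and every replicate; three in four hits are not shown here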
Target sequence (Q9HCT0 whole entry, looked up): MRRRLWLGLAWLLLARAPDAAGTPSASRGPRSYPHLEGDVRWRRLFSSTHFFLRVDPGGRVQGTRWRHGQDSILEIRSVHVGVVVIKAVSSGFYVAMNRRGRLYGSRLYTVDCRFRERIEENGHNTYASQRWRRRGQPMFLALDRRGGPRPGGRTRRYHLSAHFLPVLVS
Calls only; i = inactive. Some of the compounds tested (hit frequency here may not be typical).

Sample of the layout (4 entries):
| Compound | FGF22 binding |
| --- | --- |
| O=C(C[C@H]1CC[C@@H]2[C@H](COC[C@H](O)CN2S(=O)(=O)c2ccc(Cl)cc2)O1)NCCN1CCCC1 | i |
| CN1C(=O)c2cc(NC(=O)c3ccc(F)c(F)c3)ccc2OC[C@H]2O[C@H](CC(=O)N[C@H]3CCN(Cc4ccccc4)C3)CC[C@H]21 | i |
| O=C(c1cccc(F)c1)N1CCCCN2[C@H](CO)[C@@H](c3ccc(/C=C/c4ccccc4)cc3)[C@@H]2C1 | i |
| C[C@@H]1CCCCO[C@@H](CN(C)S(=O)(=O)c2cn(C)cn2)[C@@H](C)CN([C@H](C)CO)C(=O)c2cc(NC(=O)CCCN(C)C)ccc2O1 | i |

The whole of this part, previewed entries included:
| Compound | FGF22 binding |
| --- | --- |
| O=C(C[C@H]1CC[C@@H]2[C@H](COC[C@H](O)CN2S(=O)(=O)c2ccc(Cl)cc2)O1)NCCN1CCCC1 | i |
| CN1C(=O)c2cc(NC(=O)c3ccc(F)c(F)c3)ccc2OC[C@H]2O[C@H](CC(=O)N[C@H]3CCN(Cc4ccccc4)C3)CC[C@H]21 | i |
| O=C(c1cccc(F)c1)N1CCCCN2[C@H](CO)[C@@H](c3ccc(/C=C/c4ccccc4)cc3)[C@@H]2C1 | i |
| C[C@@H]1CCCCO[C@@H](CN(C)S(=O)(=O)c2cn(C)cn2)[C@@H](C)CN([C@H](C)CO)C(=O)c2cc(NC(=O)CCCN(C)C)ccc2O1 | i |
| CC(=O)Nc1ccc2c(c1)C(=O)N(C)[C@H]1CC[C@@H](CC(=O)NCc3ccccc3Cl)O[C@H]1CO2 | i |
| CO[C@@H]1CN(C)C(=O)c2cc(NC(C)=O)ccc2OC[C@@H](C)N(C(=O)C2CCC2)C[C@@H]1C | i |
| C[C@@H]1CCCCO[C@@H](CN(C)C(=O)c2ccccc2)[C@@H](C)CN([C@@H](C)CO)C(=O)c2cc(NC(=O)Cc3ccccc3)ccc2O1 | i |
| C[C@@H]1CN([C@H](C)CO)S(=O)(=O)c2ccc(C#CC3(O)CCCC3)cc2O[C@@H]1CN(C)C(=O)c1ccncc1 | i |
| OC[C@H]1[C@@H](c2ccc(-c3cccnc3)cc2)[C@H]2CN(CC3CC3)CCCCN21 | i |
| COc1ccc(NC(=O)N(C)C[C@H]2OCCCC[C@H](C)Oc3ccc(NC(=O)Nc4c(C)noc4C)cc3C(=O)N([C@@H](C)CO)C[C@@H]2C)cc1 | i |
| Cc1noc(C)c1S(=O)(=O)N(C)C[C@H]1OCc2ccccc2-c2ccccc2C(=O)N([C@@H](C)CO)C[C@H]1C | i |
| Cc1noc(C)c1NC(=O)Nc1ccc2c(c1)CC(=O)N([C@@H](C)CO)C[C@H](C)[C@@H](CN(C)Cc1ccc(C(=O)O)cc1)O2 | i |
| O=C(C[C@H]1CC[C@H]2[C@@H](COC[C@H](O)CN2C(=O)Nc2cc(Cl)cc(Cl)c2)O1)NCC1CCCCC1 | i |
| O=C(c1cnccn1)N1CC(=O)N2[C@H](CO)[C@@H](c3ccc(C#CCc4ccccc4)cc3)[C@@H]2C1 | i |
| CC(C)NC(=O)Nc1ccc2c(c1)C(=O)N([C@H](C)CO)C[C@H](C)[C@H](CN(C)C(=O)CCC(F)(F)F)OCCCC[C@H](C)O2 | i |
| CO[C@@H]1CN(C)C(=O)c2ccc(NS(C)(=O)=O)cc2OC[C@@H](C)N(CC2CCOCC2)C[C@@H]1C | i |
| CCS(=O)(=O)Nc1ccc2c(c1)C(=O)N(C)[C@@H]1CC[C@H](CC(=O)NC)O[C@@H]1CO2 | i |
| C[C@@H]1CN([C@@H](C)CO)C(=O)c2cccc(NC(=O)C3CC3)c2O[C@H]1CN(C)S(C)(=O)=O | i |
| CN(C)C(=O)C[C@@H]1C[C@H]2c3cc(NC(=O)Nc4ccc(C(F)(F)F)cc4)ccc3O[C@H]2[C@H](CO)O1 | i |
| O=C(c1cccnc1)N1CC2(C1)[C@H](c1ccccc1)[C@H](CO)N2Cc1ccncc1 | i |
| O=C(NCC[C@H]1CC[C@H](NC(=O)c2ccncc2)[C@@H](CO)O1)Nc1ccc(Cl)cc1 | i |
| O=C(C[C@@H]1CC[C@@H](NC(=O)C2CCC2)[C@H](CO)O1)NCc1ccncc1 | i |
| O=S(=O)(c1ccc(F)cc1)N1CCCCN2[C@@H](CO)[C@H](c3ccc(C#CC4CCCC4)cc3)[C@@H]2C1 | i |
| CC(C)C#Cc1ccc2c(c1)O[C@H](CN(C)C(=O)c1cnccn1)[C@H](C)CN([C@H](C)CO)S2(=O)=O | i |
| C[C@H](CO)N1C[C@H](C)[C@@H](CN(C)CC2CC2)OCCCC[C@H](C)Oc2ccc(NC(=O)Nc3cccc4ccccc34)cc2C1=O | i |
| C[C@H](CO)N1C[C@H](C)[C@@H](CN(C)C)Oc2c(NC(=O)Nc3ccc(C(F)(F)F)cc3)cccc2C1=O | i |
| COC(=O)[C@@]1(Cc2ccccc2N=[N+]=[N-])N=C(c2ccc(OCCCO)cc2)O[C@H]1c1ccccc1CN=[N+]=[N-] | i |
| CC(C)NC(=O)Nc1cccc2c1O[C@H](CN(C)C(=O)NC(C)C)[C@H](C)CN([C@H](C)CO)C2=O | i |
| O=C(NC[C@@H]1[C@@H](c2ccccc2)[C@@H](CO)N1C(=O)Cc1cccnc1)C1CC1 | i |
| C[C@H]1CN([C@@H](C)CO)C(=O)c2cc(-c3ccc(F)cc3)cnc2O[C@@H]1CN(C)CC1CCCC1 | i |
| CC(=O)N1CC2(C1)[C@@H](c1ccccc1)[C@@H](CO)N2Cc1cccc(Cl)c1 | i |
| C[C@@H]1ON(C)[C@H]2C[C@H]3c4[nH]c5c(-c6cccc(F)c6)cccc5c4CCN3C(=O)[C@@H]12 | i |
| C[C@H]1CN([C@@H](C)CO)C(=O)c2cc(C3=CCCCC3)cnc2O[C@@H]1CN(C)C(=O)c1cccc(F)c1 | i |
| CCC(=O)Nc1ccc2c(c1)OC[C@@H](C)N(Cc1ccccc1F)C[C@H](C)[C@H](OC)CN(C)C2=O | i |
| C[C@@H]1CN([C@@H](C)CO)C(=O)c2cccc(NC(=O)c3ccc(-c4nccs4)cc3)c2O[C@H]1CN(C)S(=O)(=O)c1cccs1 | i |
| C[C@@H]1CCCCO[C@@H](CN(C)C(=O)NC2CCCCC2)[C@@H](C)CN([C@H](C)CO)C(=O)c2cc(NS(=O)(=O)c3cccs3)ccc2O1 | i |
| C[C@H](CO)N1C[C@H](C)[C@H](CN(C)C(=O)Nc2ccccc2)Oc2ccc(NC(=O)Nc3cccc4ccccc34)cc2CC1=O | i |
| O=S(=O)(N[C@H]1CC[C@@H](CCn2cc(-c3cccc(F)c3)nn2)O[C@@H]1CO)c1ccc(F)cc1 | i |
| CCCNC(=O)C[C@H]1CC[C@@H]2[C@H](COC[C@@H](O)CN2C(=O)C2CCOCC2)O1 | i |
| CC(C)C(=O)Nc1ccc2c(c1)C(=O)N(C)[C@H]1CC[C@H](CC(=O)Nc3ccccc3F)O[C@@H]1CO2 | i |
| O=C(C[C@H]1C=C[C@H](NC(=O)c2ccccc2)[C@@H](CO)O1)Nc1ccc(-c2ccccc2)cc1 | i |
| O=C(C[C@@H]1CC[C@H](NC(=O)c2ccc(F)cc2)[C@@H](CO)O1)NCc1ccncn1 | i |
| O=C(c1ccncc1)N1C[C@H]2[C@@H](c3ccccc31)[C@@H](CO)N2Cc1ccccc1F | i |
| O=S(=O)(NCC[C@H]1CC[C@@H](NS(=O)(=O)c2ccccc2Cl)[C@@H](CO)O1)c1ccc(Cl)cc1 | i |
| C[C@@H]1CN([C@H](C)CO)C(=O)CCCn2nncc2CO[C@@H]1CN(C)C(=O)Nc1cccc(F)c1 | i |
| C[C@H](CO)N1C[C@H](C)[C@H](CN(C)CC2CC2)Oc2ccc(NS(=O)(=O)c3cn(C)cn3)cc2CC1=O | i |
| CN(C)C(=O)[C@@H]1[C@@H](CO)[C@@H]2Cn3c(ccc(-c4ccccc4)c3=O)[C@H]1N2CCc1ccccc1 | i |
| COCCNC(=O)C[C@H]1CC[C@H]2[C@@H](COc3ccc(NC(=O)c4cnccn4)cc3C(=O)N2C)O1 | i |
| O=C(C[C@@H]1C[C@H]2c3cc(NC(=O)NC4CCCCC4)ccc3O[C@H]2[C@H](CO)O1)NCCc1ccccc1 | i |
| C[C@@H]1CN([C@@H](C)CO)C(=O)Cc2cc(NC(=O)NC3CCCCC3)ccc2O[C@H]1CN(C)Cc1ccc(Oc2ccccc2)cc1 | i |
| C[C@H]1CN(C(=O)OC(C)(C)C)CCN1c1ccc(N2CCS(=O)(=O)CC2)c(C#N)c1 | i |
| C[C@H](CO)N1C[C@H](C)[C@H](CN(C)S(=O)(=O)c2ccc(F)cc2)Oc2ccc(NC(=O)C3CC3)cc2CC1=O | i |
| CCOC(=O)c1ccc(NC(=O)OC[C@@H]2CSCCS(=O)(=O)N2)cc1 | i |
| COCC(=O)N1CCC2(CC1)CN(Cc1ccc3c(c1)OCO3)[C@@H](CO)c1c2c2ccc(OC)cc2n1C | i |
| O=C(c1cccc(F)c1)N1CCCCN2[C@@H](CO)[C@H](c3ccc(C#CC4(O)CCCC4)cc3)[C@@H]2C1 | i |
| CCCN1C[C@@H](C)[C@@H](OC)CN(C)C(=O)c2cc(NC(=O)c3cnccn3)ccc2OC[C@H]1C | i |
| CC(=O)N[C@@H]1CC[C@H](CCNC(=O)C2CC2)O[C@H]1CO | i |
| C[C@H](CO)N1C[C@H](C)[C@@H](CN(C)Cc2ccc(C(F)(F)F)cc2)Oc2ccc(NC(=O)CCC(F)(F)F)cc2C1=O | i |
| C[C@H](CO)N1C[C@H](C)[C@@H](CN(C)CC2CC2)Oc2ccc(NS(=O)(=O)c3cccs3)cc2CC1=O | i |
| C[C@@H]1CN([C@@H](C)CO)C(=O)c2cc(C3=CCCC3)cnc2O[C@H]1CN(C)Cc1ccc(C(=O)O)cc1 | i |

(cont.)
| Compound | FGF22 binding |
| --- | --- |
| CC(C)C#Cc1ccc2c(c1)O[C@@H](CN(C)C(=O)CN(C)C)[C@@H](C)CN([C@@H](C)CO)S2(=O)=O | i |
| COc1ccc(CN(C)C[C@@H]2Oc3ccc(NC(=O)Cc4cn(C)c5ccccc45)cc3C(=O)N([C@H](C)CO)C[C@H]2C)cc1 | i |
| C[C@H]1CN([C@@H](C)CO)C(=O)c2cccc(NC(=O)c3ccncc3)c2O[C@@H]1CN(C)Cc1ccc(C(=O)O)cc1 | i |
| O=C1CC(O)C(Cc2ccccc2)N1 (stereo not drawn) | i |
| Cc1noc(C)c1NC(=O)N(C)C[C@H]1Oc2ccc(NS(=O)(=O)c3ccc(Cl)cc3)cc2CC(=O)N([C@@H](C)CO)C[C@@H]1C | i |
| C/C=C/c1cnc2c(c1)C(=O)N([C@@H](C)CO)C[C@@H](C)[C@@H](CN(C)C(=O)c1ccc3c(c1)OCO3)O2 | i |
| C[C@@H]1CN([C@@H](C)CO)C(=O)c2cc(NS(=O)(=O)c3cn(C)cn3)ccc2O[C@@H](C)CCCCO[C@@H]1CN(C)C(=O)CCC(F)(F)F | i |
| C[C@@H]1CN([C@H](C)CO)C(=O)c2cc(NS(=O)(=O)c3ccc(Cl)cc3)ccc2O[C@H]1CN(C)Cc1ccccc1 | i |
| C[C@@H]1CN([C@@H](C)CO)C(=O)Cc2cc(NC(=O)Nc3ccccc3)ccc2O[C@@H]1CN(C)C(=O)Nc1ccc(C(F)(F)F)cc1 | i |
| C[C@H]1CN([C@@H](C)CO)S(=O)(=O)c2ccc(-c3cccc(C#N)c3)cc2O[C@H]1CN(C)C(=O)Nc1cc(F)ccc1F | i |
| COc1ccc2c3c(n(C)c2c1)[C@@H](CO)N(Cc1cccc(F)c1)CC31CCN(C)CC1 | i |
| COCC#Cc1ccc2c(c1)O[C@@H](CN(C)C(=O)Nc1ccccc1F)[C@@H](C)CN([C@H](C)CO)S2(=O)=O | i |
| C[C@@H]1CCCCO[C@H](CN(C)Cc2ccc(Cl)c(Cl)c2)[C@H](C)CN([C@@H](C)CO)C(=O)c2cc(NS(C)(=O)=O)ccc2O1 | i |
| COc1ccc(S(=O)(=O)Nc2cccc3c2O[C@H](CN(C)C(=O)NC(C)C)[C@H](C)CN([C@H](C)CO)C3=O)cc1 | i |
| C[C@@H]1CN([C@@H](C)CO)S(=O)(=O)c2ccc(C#C[C@@H](C)O)cc2O[C@@H]1CN(C)C(=O)c1ccccc1 | i |

Sorted by molar mass (high to low): three of the compounds above
| Compound | FGF22 binding |
| --- | --- |
| COc1ccc(S(=O)(=O)Nc2cccc3c2O[C@H](CN(C)C(=O)NC(C)C)[C@H](C)CN([C@H](C)CO)C3=O)cc1 | i |
| C[C@H]1CN([C@@H](C)CO)C(=O)c2cccc(NC(=O)c3ccncc3)c2O[C@@H]1CN(C)Cc1ccc(C(=O)O)cc1 | i |
| O=C1CC(O)C(Cc2ccccc2)N1 (stereo not drawn) | i |

Going on with the list.
| Compound | FGF22 binding |
| --- | --- |
| C[C@@H]1CN([C@@H](C)CO)C(=O)c2cc(NC(=O)Nc3ccccc3)ccc2O[C@H]1CN(C)S(=O)(=O)c1ccc(F)cc1 | i |
| O=C(NCc1ccccc1F)[C@H]1N[C@H]2c3ccc(-c4ccccc4F)c(=O)n3C[C@H]2[C@@H]1CO | i |
| C[C@@H]1CN([C@@H](C)CO)C(=O)c2cccc(NS(=O)(=O)c3ccc(Cl)cc3)c2O[C@@H]1CN(C)Cc1ccc2c(c1)OCO2 | i |
| CC(C)NC(=O)N(C)C[C@@H]1Oc2ccc(NS(=O)(=O)c3cn(C)cn3)cc2CC(=O)N([C@H](C)CO)C[C@H]1C | i |
| C[C@H](CO)N1C[C@H](C)[C@H](CN(C)Cc2ccc3c(c2)OCO3)OCCCC[C@H](C)Oc2ccc(NS(C)(=O)=O)cc2C1=O | i |
| COC(=O)C[C@@H]1C[C@H]2c3cc(NS(=O)(=O)c4ccc(OC)cc4)ccc3O[C@H]2[C@@H](CO)O1 | i |
| COc1ccccc1NC(=O)N1C[C@H]2[C@@H](c3ccccc31)[C@@H](CO)N2Cc1ccc2c(c1)OCO2 | i |
| C/C=C/c1cnc2c(c1)C(=O)N([C@H](C)CO)C[C@H](C)[C@H](CN(C)C(=O)Cc1cccnc1)O2 | i |
| Cc1noc(C)c1NC(=O)N(C)C[C@@H]1Oc2c(NS(=O)(=O)c3cccs3)cccc2C(=O)N([C@@H](C)CO)C[C@H]1C | i |
